Sa ugtP lethal: kills S. aureus RN4220 lacking UgtP. S. aureus RN4220 ugtP deletion, OD600 growth, 16 h; some inactives read as strong as hits. growth inhibition, % (test concentration not listed). 330,000 tested, 0.54% active. AID 1259309;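 active means z-score under -3 and OD600 up to 0.15 on both plates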;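 further: plate controls were untreated wells for no effect and antibiotic for full effect; wells of about 80 µL received 100 nL stock; the first replicate is given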
PrP UTR inh: inhibition of PrP 5' UTR reporter expression. cell-based PrP 5' UTR mRNA reporter, plate reader. inhibition, % (concentration not given with the values). 340,000 tested, 0.35% active. AID 488862;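 active means every replicate at 50% or more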;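 further: 0 = median of the neutral control wells; tested in H4 reporter cells; numbers are from one replicate; inactives centre near -14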
BJeLR lethal: BJeLR cell viability loss; BJeLR (HRASV12) viability, CellTiter-Glo ATP luminescence, 48 h; reference of the scale not given here; inhibition, % (test concentration not listed); 300,000 tested, 0.17% active; AID 1554;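 active means replicate mean above 50%; inconclusive means above 50% but judged a plate artefact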;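 further: 50 nL library stock added to about 25 µL; numbers are from one replicate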
Sa RN4220 lethal: S. aureus RN4220 growth inhibition | OD600, 16 h | inhibition, % (concentration not given with the values) | 330,000 tested, 0.33% active;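 active means z-score of -3 or lower and OD600 up to 0.18 on both plates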;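 further: plate controls were untreated cells for no effect and reference antibiotic for full effect; stock transfer was 100 nL into about 80 µL; one replicate is shown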
Bead autofluor: counter-screen for toxin protease inhibitors: compound fluorescence; compound autofluorescence counterscreen, microsphere flow cytometry; hits give high values; fluorescence intensity (concentration not given with the values); 360,000 tested, 3.1% active; AID 624483;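 active means at least 3 SD above the mean of all compounds, about 16000 in these data; inconclusive means too few beads counted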;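 further: 100 nL of 1 mM stock went into each well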
Mtb hypoxia rep: inhibitors of hypoxia-regulated fluorescent reporter in Mycobacterium tuberculosis; fluorescence inhibition, % (concentration not given with the values); AID 1159583; 300,000 tested, 0.1% active; M. tuberculosis hypoxia-regulated fluorescent reporter, fluorescence;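 active means 35 to 45% if threefold the growth effect, above 45% if 1.5-fold the growth effect; inactive means the rest, general growth blockers included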;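 further: wells of about 50 µL received 100 nL stock; 0% = vehicle wells and 100% = reference inhibitor wells; whole bacteria with a GFP reporter of the hypoxia response; strong numbers were not always called active; many hits fall short of the cut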
Mtb hypoxia rep growth: further read-out of Mtb hypoxia rep, marked with its call; growth inhibition, %; measured here: M. tuberculosis growth (absorbance);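 0% = vehicle and 100% = reference antibiotic; read after six days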
Numbers without * were called inactive; ? = inconclusive; · = no result given.

mol	Bead autofluor	Sa ugtP lethal	PrP UTR inh	Mtb hypoxia rep growth	BJeLR lethal	Mtb hypoxia rep	Sa RN4220 lethal
O=C(COC(=O)Cn1cnc2ccccc21)Nc1ccccc1C(F)(F)F	3873	-5	-30	4	·	-6	0.7
CCOC(=O)C1(CCOc2ccccc2)CCN(CC=C(C)C)CC1	3633	4	-14	6	-4	9	2.5
CCc1ccc(-c2cc(C(=O)NN=Cc3ccco3)[nH]n2)cc1	·	-6	·	6	·	20	2.4
Cc1cc(S(=O)(=O)N2CCOCC2)ccc1OCC(=O)Nc1cccc(F)c1	3571	0	-18	3	6	4	2.0
CCc1nn(CCCC(=O)Nc2ccc(C)cc2C)c(=O)c2cc3occc3n12	5460	4	-18	3	-2	9	9.2
c1cncc(-c2nc(N3CCOCC3)c3c4c(sc3n2)CCC4)c1	3282	8	-6	3	-18	16	6.7
COc1cc(/C=N/NC(=O)CCN2CCN(C)CC2)cc2c1OCO2	6783	·	-6	·	-8	·	·
N#Cc1cc([N+](=O)[O-])ccc1N1CCN(c2ccccc2O)CC1	4179	1	-13	14	18	4	7.8
Cc1[nH]nc(-c2ccc(O)cc2O)c1-c1nc2ccccc2s1	4364	-8	-40	14	-2	-3	-0.3
O=C(Cn1cnc2c(nnn2Cc2ccc(F)cc2)c1=O)NCc1ccc2c(c1)OCO2	4429	11	-15	3	-3	5	2.6
CC(=O)C1=C(C)NC2=C(C(=O)CC(C)(C)C2)C1C (configuration not stated)	4433	0	-16	3	2	4	5.7
COc1ccc(S(=O)(=O)N2CCOCC2)cc1NC(=O)c1cccs1	11844	2	·	6	·	2	2.1
COc1cc(OC)c(C2SCCS2)c(OC)c1	2143	-2	-9	4	-1	-1	-0.9
Cc1ccc(C2(C)NC(=O)N(CC(=O)N(C)CC(=O)Nc3cccc(F)c3)C2=O)cc1 (configuration not stated)	6867	13	-8	0	·	3	6.1
Clc1ccc(N2CCN(c3cnc4ccccc4n3)CC2)cc1	3203	1	-35	4	-11	5	0.7
CCCOC(=S)Nc1ccccc1	3255	-8	-30	-3	11	-2	-0.9
CCOC(=O)c1cnc2c(OC)cccc2c1NCc1cccnc1	2619	3	10	-2	-5	1	2.3
CN1CCc2c(sc(N=Cc3c[nH]c4ccccc34)c2C#N)C1	·	6	·	-4	·	13	3.9
CC(C)Oc1ccc(C(=O)Nc2ccc(NC(=O)c3ccco3)c(Cl)c2)cc1	3210	5	-34	5	-1	8	6.0
CCc1cccc(NS(=O)(=O)c2c(C)nc3sc(CC)nn3c2=O)c1	4981	22	-39	3	·	5	4.4

Laid out differently: 4 of the compounds above.
Cc1cc(S(=O)(=O)N2CCOCC2)ccc1OCC(=O)Nc1cccc(F)c1
  Bead autofluor: 3571
  Sa ugtP lethal: 0
  PrP UTR inh: -18
  Mtb hypoxia rep growth: 3
  BJeLR lethal: 6
  Mtb hypoxia rep: 4
  Sa RN4220 lethal: 2.0
COc1cc(OC)c(C2SCCS2)c(OC)c1
  Bead autofluor: 2143
  Sa ugtP lethal: -2
  PrP UTR inh: -9
  Mtb hypoxia rep growth: 4
  BJeLR lethal: -1
  Mtb hypoxia rep: -1
  Sa RN4220 lethal: -0.9
CC(C)Oc1ccc(C(=O)Nc2ccc(NC(=O)c3ccco3)c(Cl)c2)cc1
  Bead autofluor: 3210
  Sa ugtP lethal: 5
  PrP UTR inh: -34
  Mtb hypoxia rep growth: 5
  BJeLR lethal: -1
  Mtb hypoxia rep: 8
  Sa RN4220 lethal: 6.0
Cc1[nH]nc(-c2ccc(O)cc2O)c1-c1nc2ccccc2s1
  Bead autofluor: 4364
  Sa ugtP lethal: -8
  PrP UTR inh: -40
  Mtb hypoxia rep growth: 14
  BJeLR lethal: -2
  Mtb hypoxia rep: -3
  Sa RN4220 lethal: -0.3

Record cards (already shown). Order of screens: Bead autofluor	Sa ugtP lethal	PrP UTR inh	Mtb hypoxia rep growth	BJeLR lethal	Mtb hypoxia rep	Sa RN4220 lethal
`Cc1[nH]nc(-c2ccc(O)cc2O)c1-c1nc2ccccc2s1` reads 4364	-8	-40	14	-2	-3	-0.3
`COc1cc(OC)c(C2SCCS2)c(OC)c1` reads 2143	-2	-9	4	-1	-1	-0.9

Following part.
mol	Bead autofluor	Sa ugtP lethal	PrP UTR inh	Mtb hypoxia rep growth	BJeLR lethal	Mtb hypoxia rep	Sa RN4220 lethal
N#Cc1ccc[n+](CC(=O)c2ccc(NC(=O)c3ccccc3)cc2)c1	4738	12	-23	9	-8	1	1.5
CCCn1c(SCC(=O)OCc2ccccc2)nc2c1c(=O)n(C)c(=O)n2C	?	1	-13	2	-6	0	3.6
Clc1ccc(CNc2ncnc3[nH]ncc23)cc1Cl	4426	-13	-37	9	·	2	5.4
O=C(Cn1nnc2c(cnn2-c2ccc(F)cc2)c1=O)c1ccccc1F	3657	16	-8	4	·	12	7.4
CCOC(=O)C1CCN(c2nc(N)c3c(N)nc(SCC(=O)O)cc3c2C#N)CC1	4447	10	-19	-1	-2	12	8.0
O=C(CCNC(=O)c1ccc(Cl)cc1)NCc1ccccc1Cl	·	12	-10	0	·	-5	-0.9
CCOC(=O)/C=c1\sc2n(c1=O)CCN=2	10129	·	-23	·	-10	·	·
Cc1cc2n(n1)SC(Nc1cccc3ccccc13)N2 (configuration not stated)	17932*	1	-25	34	5	21	1.7
CC(=O)Nc1ccc(NC(=O)CSC2=NCCS2)cc1	3122	-3	-4	7	-7	5	-19
CCOC(=O)N1CCN(C(=O)Nc2ccc3nccnc3c2)CC1	7956	-1	-22	9	0	-4	-1.5
Cc1ccc(C(NC(=O)NC(C)c2ccccc2)C(Cl)(Cl)Cl)cc1F (configuration not stated)	9846	-4	-16	0	3	11	20
C=CCNC(=S)NNC(=O)COc1c(Cl)cc(Cl)cc1Cl	2052	3	-11	7	2	17	1.9
O=C(O)c1nn(CC(=O)N2CCCCCC2)c(=O)c2ccccc12	4479	1	-21	-1	13	5	4.9
COc1cccc(C2C=C(c3ccc(OC)cc3OC)Nc3nnnn32)c1 (configuration not stated)	4545	·	-8	·	9	·	·
COc1ccc(-c2nnc(NC(=O)C3CCCO3)s2)cc1 (configuration not stated)	4104	-4	-73	11	-14	14	-0.4
O=C(NN1C(=O)NC2(CCCCC2)C1=O)c1ccc(-c2ccc([N+](=O)[O-])cc2)o1	5563	-1	2	0	-12	-1	-0.4
O=C(OCc1nnc(-c2ccccc2)o1)c1cccc(-n2cnnn2)c1	5148	·	-18	·	-8	·	·
O=C(NCCN1CCN(c2cccc(Cl)c2)CC1)c1cccn2c(=O)c3ccccc3nc12	4624	6	-24	3	·	5	-0.4
O=C1CCCC/C1=C\Nc1ccc(Cl)cn1	10582	-5	-72	11	1	4	6.7
Cc1ccc(S(=O)(=O)/C=C2\NC(=O)CS2)cc1	2853	·	-12	·	4	·	·
O=C(O)/C=C/c1ccc(S(=O)(=O)Nc2cccnc2)cc1	4196	8	-1	2	1	14	-0.4
CC(=O)c1ccc(NC(=O)C[n+]2ccc(N(C)C)cc2)cc1	4345	-2	-19	-11	0	-1	-3.5
O=C(O)C(CCc1ccccc1)N1C(=O)c2ccccc2C1=O (configuration not stated)	3780	7	-16	7	·	2	6.0
Cc1ccc(S(=O)(=O)N2C(=O)CCC2C(=O)O/N=C(\N)c2cccc([N+](=O)[O-])c2)cc1 (configuration not stated)	5661	3	-24	10	4	5	2.7
COCCNC(=O)/C(C#N)=C/c1cccc(/C=C(\C#N)C(=O)NCCOC)c1	10008	-4	-10	5	7	4	1.4
CN=C1N(C)C[C@@H]2[C@@H]3C(=O)N(C)C(=O)[C@@H]3[C@](C)(C(=O)OC)N12	3876	-1	1	2	·	-3	0.2
COc1ccc(CNC(=O)CSCc2c(F)cccc2Cl)cc1	?	2	-34	7	-8	16	0.3
Cc1ccc(NC(=O)N2CCSc3ccccc32)cc1	4493	-5	-14	12	-20	1	-9.3
O=S(=O)(NCCc1ccccn1)c1ccc(OC(F)(F)F)cc1	4544	6	-12	-13	-1	4	1.4
Cc1cc(=O)[nH]c(-c2cccs2)n1	5790	-4	-26	-3	13	-5	-0.3
CCOC(=O)C1CCN(C(=O)c2ccc3nc(-c4ccc(OC)cc4)c(-c4ccc(OC)cc4)nc3c2)CC1	5131	5	-5	-3	4	-1	3.7
C=CCNC(=O)CN(c1cc(Cl)ccc1OC)S(=O)(=O)c1ccc(C)c([N+](=O)[O-])c1	2569	-1	-9	12	6	-4	0.6
CCOC(=O)c1cc(-c2ccccc2)sc1NC(=O)C(C)Sc1nnc(C)s1 (configuration not stated)	2421	-4	-12	14	0	0	-3.9
CCOc1cccc(-c2c(C(=O)NN=Cc3cccnc3)nnn2-c2nonc2N)c1	·	12	·	3	·	11	6.8
CC(C)NC(=O)CN1C(=O)NC(CCc2ccccc2)C1=O (configuration not stated)	2172	14	-9	·	-14	·	4.9
COC(=O)c1c(-c2cc(OC)cc(OC)c2)sc2ccc(OC)cc12	2899	10	9	7	·	4	-7.2
Cc1cc(C)c(C)c(C(=O)COC(=O)CNC(=O)CNC(=O)c2ccco2)c1C	5905	0	-10	0	-8	-11	-0.8
CCOc1cc(/C=N/NC(N)=O)ccc1OCC(=O)Nc1ccc(C)c(C)c1	2626	·	-18	·	4	·	·
Cn1ncc([N+](=O)[O-])c1C(=O)Nc1ccccc1Cl	4003	5	-6	1	0	8	4.1
CCC(=O)N1c2ccccc2NC2=C(C(=O)CCC2)C1c1ccc(N(C)C)cc1 (configuration not stated)	4880	9	-11	-3	-2	5	4.0
CC(C)Sc1nnc(-c2ccc(S(=O)(=O)N3CCOCC3)cc2)n1C	3046	12	4	-7	7	10	1.3
O=C(NCCCn1ccnc1)c1cccnc1	3889	7	14	·	3	·	3.2
CC(C)(C)Cc1nc2ccccc2n1CCc1ccccc1	4288	10	-28	4	3	10	7.9
COc1ccc(C(=O)OCC(=O)c2ccc3c(c2)NC(=O)CO3)cc1S(=O)(=O)N1CCOCC1	3896	3	-12	8	·	-2	2.4
COCCNC(=O)c1nn(-c2cc(OC)cc(OC)c2)c(=O)c2ccccc12	5194	-3	-117	·	2	·	-3.5
Cc1cccc2c1-c1sc(C(=O)NCCCN3CCc4ccccc4C3)cc1CO2	4921	-5	-15	18	-5	-7	1.9
O=C(NCc1nc2ccccc2[nH]1)C1=C[C@H](c2csc3ccccc23)C[C@H](OCc2ccc(CO)cc2)O1	4320	·	-24	·	-2	·	·
Cc1ccccc1-c1nc(CN2CCC(C(=O)NC3CC3)CC2)c(C)o1	4644	3	-19	3	0	17	3.9
CCCCCCCCC(=O)Nc1cc(C)ccc1OC	10029	28	-19	0	-7	1	5.2
COc1ccc(-c2nc3c(c(=O)[nH]c(=O)n3Cc3ccccc3)n2CCO)cc1	6164	-3	-17	-3	5	7	2.3
COc1ccc(C(=O)NNC(=S)NC(=O)c2ccccc2[N+](=O)[O-])cc1	2476	-1	-11	10	-5	4	16
CCOC(=O)N1CCC(=NNC(=O)NC2CCCCC2)CC1	4473	4	-17	8	3	11	16
Clc1ccc(Cn2c(-c3cccnc3Cl)nc3ccccc32)c(Cl)c1	21985*	-7	-17	0	-4	4	-0.7
CSc1cccc(NC(=S)N(C(C)C)C(C)c2ccccn2)c1 (configuration not stated)	3429	11	-5	6	-8	0	3.5
CC1CCCCC1NC(=O)C(=O)NCC1CCCO1 (configuration not stated)	2399	3	-23	12	-9	8	1.5
COc1ccc(C=NNC(=O)Nc2ccc3nsnc3c2)c(OC)c1	·	4	·	6	·	2	2.4
COc1ccc(-c2cc(=O)[nH]c(NCc3ccccc3)n2)cc1	8014	-6	-17	4	3	3	8.4

Bioassay records: PubChem, several laboratories
